# Vaccinia inh = blocks a specific stage of Vaccinia orthopoxvirus infection, primary screen, cell-based, single point | Vaccinia-infected cells, mCherry/Venus stage reporter fluorescence; hits give low values; some inactives read as strong as hits | activity change (mCherry), % (concentration not given with the values) | 89,000 compounds, 0.01% hits;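 active = mCherry past -33% and 40 or more points under the early reporter, replicates agreeing; inconclusive = past -33% without that gap or agreement; tested in A549 cells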;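 note: scaled between vehicle wells and reference inhibitor wells; 23 nL library stock went into each well; one replicate is shown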
# Vaccinia inh Venus = recorded beside Vaccinia inh, whose call it bears; activity change (Venus), %; measured here: Venus reporter, other viral stage;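 negative = less Venus signal; first of two replicates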
# Numbers without * were called inactive; u = inconclusive; x = no result given. The list is partial; rates above refer to the full screens.
SMILES,Vaccinia inh,Vaccinia inh Venus
Cc1ccc(-c2ccc([C@H]3[C@H](CO)N4C(=O)CN(C(=O)Nc5cccc(F)c5)C[C@@H]34)cc2)cc1,-33,-32
C[C@@H]1CN([C@H](C)CO)C(=O)Cc2cc(NC(=O)Nc3ccc4c(c3)OCO4)ccc2O[C@H]1CN(C)C(=O)Nc1ccc(C(F)(F)F)cc1,3,5
COc1ccc(NC(=O)Nc2ccc3c(c2)C(=O)N([C@H](C)CO)C[C@H](C)[C@H](CN(C)Cc2ccc(Cl)c(Cl)c2)O3)cc1,u,x
CS(=O)(=O)N1CC(=O)N2[C@H](CO)[C@H](c3ccc(C#Cc4ccccc4)cc3)[C@@H]2C1,-10,-4
C[C@@H]1CN([C@@H](C)CO)C(=O)c2c(c3ccccc3n2C)-c2ccccc2CO[C@@H]1CN(C)C(=O)N[C@H](C)c1ccccc1,u,x
C=CCN(Cc1ccccc1)C(=O)[C@@H]1N(C(C)(C)C)C(=O)[C@H]2[C@H](C(=O)O)[C@@H]3C=C[C@]12O3,-3,-9
CCC(=O)N1CC(=O)N2[C@H](CO)[C@@H](c3ccc(C#Cc4cccnc4)cc3)[C@H]2C1,-1,0
O=C(C[C@H]1CC[C@H]2[C@@H](COC[C@H](O)CN2C(=O)c2ccccn2)O1)NC1CCC1,12,5
C[C@@H]1CN([C@H](C)CO)C(=O)c2cc(C#Cc3ccccn3)cnc2O[C@@H]1CN(C)C(=O)CCN1CCCCC1,18,14
C[C@H](CO)N1C[C@H](C)[C@H](CN(C)Cc2ccc(Cl)c(Cl)c2)Oc2c(NS(=O)(=O)c3cccs3)cccc2C1=O,u,x
CO[C@@H]1CN(C)C(=O)c2cc(NS(=O)(=O)c3cccc(Cl)c3)ccc2OC[C@@H](C)NC[C@@H]1C,15,12
CC(C)C#Cc1ccc([C@H]2[C@@H](C#N)N(C(=O)c3ccccn3)[C@H]2CO)cc1,-30,-28
C[C@@H]1CN([C@@H](C)CO)C(=O)c2cc(NC(=O)c3ccccc3)ccc2O[C@@H](C)CCCCO[C@H]1CN(C)C(=O)c1ccccc1,u,x
O=C(C[C@H]1CC[C@H]2[C@@H](COC[C@H](O)CN2Cc2ccc(Cl)cc2)O1)NCc1ccccc1Cl,-28,-24
C[C@H]1CN([C@@H](C)CO)C(=O)c2cc(NC(=O)Cc3cn(C)c4ccccc34)ccc2O[C@H]1CN(C)S(C)(=O)=O,3,3
COCC(=O)Nc1ccc2c(c1)[C@H]1C[C@H](CC(=O)NCc3ccc(-c4ccccc4)cc3)O[C@@H](CO)[C@H]1O2,-3,-4
CO[C@H](CN(C)Cc1ccc2c(c1)OCO2)[C@@H](C)CN(C(=O)Nc1ccc(F)cc1)[C@@H](C)CO,-14,-7
CCN1[C@@H]2c3ccc(-c4ccccc4OC)c(=O)n3C[C@H]1[C@H](CO)[C@H]2C(=O)N[C@H](C)c1ccccc1,5,5
C[C@@H]1CN([C@H](C)CO)C(=O)c2cc(C#CC3CCCCC3)cnc2O[C@@H]1CN(C)S(=O)(=O)c1ccccc1,u,x
COc1ccc(-c2ccc3c(c2)O[C@@H](CN(C)Cc2ccccc2C(=O)O)[C@@H](C)CN([C@H](C)CO)S3(=O)=O)cc1,15,7
C[C@H]1CN([C@@H](C)CO)C(=O)c2cc(C#CCN(C)C)cnc2O[C@H]1CN(C)C(=O)Nc1cccc(F)c1,1,-1
CCC(=O)Nc1ccc2c(c1)OC[C@H](C)N(C(=O)NC(C)C)C[C@H](C)[C@@H](OC)CN(C)C2=O,-8,-7
COc1ccccc1S(=O)(=O)N[C@@H]1CC[C@H](CC(=O)NCc2cccc(F)c2)O[C@@H]1CO,2,-6
COc1ccc(NC(=O)N(C)C[C@H]2OCCCC[C@H](C)Oc3ccc(N(C)C)cc3C(=O)N([C@H](C)CO)C[C@@H]2C)cc1,-2,8
O=C(N[C@H]1CC[C@H](CC(=O)N2CCOCC2)O[C@H]1CO)c1ccc2c(c1)OCO2,9,17
COc1ccccc1CNC(=O)C[C@H]1C[C@H]2c3cc(NC(=O)Nc4ccccc4F)ccc3O[C@H]2[C@H](CO)O1,17,13
C[C@H]1CN([C@@H](C)CO)C(=O)c2cc(-c3ccncc3)cnc2O[C@H]1CN(C)C(=O)NC1CCCC1,14,8
C[C@@H]1CN([C@H](C)CO)C(=O)c2cc(NC(=O)c3ccncc3)ccc2O[C@H]1CN(C)Cc1ccc(Cl)c(Cl)c1,-19,-16
CCCC(=O)Nc1ccc2c(c1)C(=O)N(C)[C@@H]1CC[C@H](CC(=O)O)O[C@H]1CO2,11,9
COCC(=O)Nc1ccc2c(c1)OC[C@@H](C)N(C(=O)COC)C[C@H](C)[C@H](OC)CN(C)C2=O,12,14
COCC#Cc1cnc2c(c1)C(=O)N([C@H](C)CO)C[C@H](C)[C@H](CN(C)C(=O)Cc1cccnc1)O2,24,16
OC[C@H]1[C@H](c2ccc(C#Cc3ccccc3)cc2)[C@H]2CN(Cc3cncnc3)CCCCN21,-25,-32
C#CCNC(=O)C1=C[C@H](C(C)(C)C)C[C@H](OCCCCO)O1,7,5
CNC[C@H]1OCCCC[C@H](C)Oc2ccc(N(C)C)cc2C(=O)N([C@H](C)CO)C[C@H]1C,7,7
C[C@@H]1CN([C@H](C)CO)C(=O)c2cc(-c3cccnc3)cnc2O[C@H]1CN(C)C(=O)Nc1ccc2c(c1)OCO2,9,17
COc1ccc(NC(=O)N2C[C@@H](O)COC[C@H]3O[C@@H](CC(=O)NC4Cc5ccccc5C4)CC[C@@H]32)cc1,-5,-3
C[C@H](CO)N1C[C@H](C)[C@@H](CN(C)S(=O)(=O)c2ccccc2F)OCc2cn(nn2)CCCC1=O,1,-2
O=C(C[C@@H]1CC[C@@H](NC(=O)Nc2ccc3c(c2)OCO3)[C@H](CO)O1)NCCCN1CCOCC1,13,2
CNC[C@@H]1Oc2ccc(NS(=O)(=O)c3ccc(OC)cc3)cc2CC(=O)N([C@H](C)CO)C[C@@H]1C,-13,-6
COc1ccccc1NC(=O)N1C[C@@H]2N[C@H](C1)C2c1ccc(-c2ccccc2)cc1 (some centres undefined),u,-17
C[C@@H]1CN([C@@H](C)CO)C(=O)c2cccc(NS(=O)(=O)c3ccccc3)c2O[C@H]1CN(C)S(=O)(=O)c1ccc(Cl)cc1,1,0
CO[C@H]1CC[C@@H]2CCOc3ccc(C#N)cc3C(=O)N(C)C[C@H](C)C(=O)N(C)C[C@@H]1O2,6,9
C[C@H](CO)N1C[C@H](C)[C@@H](CN(C)Cc2ccc(Cl)c(Cl)c2)OCCCC[C@H](C)Oc2ccc(NC(=O)Nc3ccc4c(c3)OCO4)cc2C1=O,-21,-8
CC(C)NC(=O)Nc1ccc2c(c1)C(=O)N([C@H](C)CO)C[C@H](C)[C@H](CN(C)S(=O)(=O)c1cn(C)cn1)OCCCC[C@H](C)O2,3,1
O=C(C[C@H]1C[C@H]2c3cc(NS(=O)(=O)c4ccc(F)cc4)ccc3O[C@H]2[C@H](CO)O1)N1CCc2ccccc2C1,-32,-25
COc1ccc(S(=O)(=O)N2CC[C@H]3[C@H](CO)Nc4ccc(C#Cc5ccccc5OC)cc4[C@H]32)cc1,-30,-22
O=S(=O)(c1ccccc1F)N1CCCCN2[C@H](CO)[C@@H](c3ccc(-c4ccccc4)cc3)[C@@H]2C1,-7,-26
CO[C@@H]1CN(C)C(=O)c2cc(NS(C)(=O)=O)ccc2OC[C@@H](C)N(C(=O)C2CCOCC2)C[C@H]1C,4,9
C[C@H](CO)N1C[C@H](C)[C@H](CN(C)S(C)(=O)=O)OCCCC[C@H](C)Oc2ccc(NC(=O)Nc3ccccc3)cc2C1=O,9,3
C[C@H](CO)N1C[C@H](C)[C@H](CN(C)CC2CCCCC2)Oc2ccc(NS(C)(=O)=O)cc2CC1=O,8,7
COCC#Cc1ccc2c(c1)O[C@@H](CN(C)S(=O)(=O)c1cccc(OC)c1)[C@H](C)CN([C@H](C)CO)S2(=O)=O,4,-3
O=C(Nc1cccc(Cl)c1)N[C@@H]1CC[C@@H](CCNC(=O)C2CC2)O[C@@H]1CO,-4,1
COCC#Cc1ccc2c(c1)O[C@@H](CN(C)C(=O)c1ccccc1F)[C@H](C)CN([C@H](C)CO)S2(=O)=O,1,1
CCC(=O)N1C[C@@H](C)[C@@H](OC)CN(C)C(=O)c2ccc(NS(C)(=O)=O)cc2OC[C@H]1C,4,8
Cc1noc(C)c1NC(=O)N(C)C[C@H]1Oc2ccc(NC(=O)CCCCCC(=O)Nc3ccccc3N)cc2C(=O)N([C@H](C)CO)C[C@@H]1C,4,2
C[C@@H]1CN([C@H](C)CO)S(=O)(=O)c2ccc(C#CC3CC3)cc2O[C@H]1CN(C)Cc1ccncc1,u,x
COc1ccc2c3c(n(C)c2c1)[C@H](CO)N(C(=O)c1ccccn1)CC31CCN(C(=O)c2ccccn2)CC1,8,-3
C[C@@H]1CN([C@@H](C)CO)C(=O)c2cc(/C=C/c3ccccc3)cnc2O[C@@H]1CN(C)C(=O)NC1CCCCC1,-33,-27
O=C(CN1CCOCC1)NCC[C@@H]1CC[C@@H](NC(=O)Nc2ccc(F)cc2)[C@H](CO)O1,9,7
C[C@H](CO)N1C[C@H](C)[C@H](CN(C)C(=O)CC2CC2)Oc2cc(C#C[C@@H](C)O)ccc2S1(=O)=O,0,-3
# Further results.
SMILES,Vaccinia inh,Vaccinia inh Venus
C/C=C/c1ccc2c(c1)O[C@@H](CN(C)C(=O)NC1CCCC1)[C@@H](C)CN([C@H](C)CO)S2(=O)=O,13,0
O=C(Cc1ccccn1)NCC[C@H]1CC[C@H](NC(=O)Nc2ccc(F)cc2)[C@H](CO)O1,6,1
COc1cccc(C#Cc2ccc3c(c2)[C@H]2[C@H](CCN2C(=O)c2ccc4c(c2)OCO4)[C@@H](CO)N3)c1,7,7
COCC(=O)Nc1ccc2c(c1)OC[C@@H](C)N(Cc1ccccc1)C[C@H](C)[C@H](OC)CN(C)C2=O,-16,-24
O=C/C=C/c1ccc2c(c1)OCO2,0,-3
C[C@H]1CN([C@@H](C)CO)C(=O)c2cc(NC(=O)CCCN(C)C)ccc2O[C@H]1CN(C)S(=O)(=O)c1ccccc1,0,-1
O=C(c1ccc(F)cc1)N1CC(=O)N2[C@H](CO)[C@H](c3ccc(C#CC4CCCCC4)cc3)[C@H]2C1,u,x
C[C@H](CO)N1C[C@H](C)[C@H](CN(C)CC2CCCCC2)Oc2ccc(NC(=O)Cc3ccccc3)cc2C1=O,-12,-8
COc1ccc(S(=O)(=O)Nc2ccc3c(c2)C(=O)N([C@@H](C)CO)C[C@@H](C)[C@H](CN(C)C(=O)CCC(F)(F)F)OCCCC[C@H](C)O3)cc1,-14,-10
CO[C@H](CN(C)C(=O)Nc1ccc(C(F)(F)F)cc1)[C@H](C)CN(Cc1ccccc1Cl)[C@H](C)CO,-32,-15
N#C[C@@H]1[C@@H](c2ccc(-c3ccncc3)cc2)[C@@H](CO)N1C(=O)C1CCCC1,7,10
CCCC(=O)Nc1ccc2c(c1)OC[C@H](C)N(Cc1ccc(-c3ccccn3)cc1)C[C@H](C)[C@@H](OC)CN(C)C2=O,-20,-11
CCCC(=O)Nc1ccc2c(c1)OC[C@@H](C)N(Cc1ccccc1F)C[C@@H](C)[C@@H](OC)CN(C)C2=O,-13,-1
COCCOC(=O)N1C(=O)[C@@]2(c3cc(C#CC4=CCCCC4)ccc31)[C@H](c1ccc(O)cc1)N1[C@H](c3ccccc3)[C@H](c3ccccc3)OC(=O)[C@H]1[C@@H]2C(N)=O,-6,5
COc1cccc(S(=O)(=O)Nc2ccc3c(c2)[C@@H]2C[C@H](CC(=O)NCc4ccccc4F)O[C@@H](CO)[C@@H]2O3)c1,u,x
CCCNC(=O)C[C@@H]1C[C@@H]2c3cc(NC(=O)COC)ccc3O[C@@H]2[C@H](CO)O1,3,9
CCCNC(=O)N1CCC2(CC1)CN(C(=O)c1ccccc1)[C@H](CO)c1[nH]c3cc(OC)ccc3c12,4,5
O=C(C1CCC1)N1CC(=O)N2[C@H](CO)[C@H](c3ccc(-c4ccccc4F)cc3)[C@@H]2C1,-14,-14
Cc1noc(C)c1NC(=O)Nc1ccc2c(c1)C(=O)N(C)[C@H]1CC[C@@H](CC(=O)N[C@@H]3CCN(Cc4ccccc4)C3)O[C@@H]1CO2,3,2
CO[C@H]1CN(C)C(=O)c2ccc(NC(C)=O)cc2OC[C@H](C)N(C(=O)C2CCC2)C[C@H]1C,9,7

# Complete entries from above. Screens in order: Vaccinia inh | Vaccinia inh Venus
# Record of O=C(C1CCC1)N1CC(=O)N2[C@H](CO)[C@H](c3ccc(-c4ccccc4F)cc3)[C@@H]2C1 : -14 | -14
# Record of CO[C@H]1CN(C)C(=O)c2ccc(NC(C)=O)cc2OC[C@H](C)N(C(=O)C2CCC2)C[C@H]1C : 9 | 7

# Compounds listed so far that have a Cl atom:
SMILES,Vaccinia inh,Vaccinia inh Venus
COc1ccc(NC(=O)Nc2ccc3c(c2)C(=O)N([C@H](C)CO)C[C@H](C)[C@H](CN(C)Cc2ccc(Cl)c(Cl)c2)O3)cc1,u,x
C[C@H](CO)N1C[C@H](C)[C@H](CN(C)Cc2ccc(Cl)c(Cl)c2)Oc2c(NS(=O)(=O)c3cccs3)cccc2C1=O,u,x
CO[C@@H]1CN(C)C(=O)c2cc(NS(=O)(=O)c3cccc(Cl)c3)ccc2OC[C@@H](C)NC[C@@H]1C,15,12
O=C(C[C@H]1CC[C@H]2[C@@H](COC[C@H](O)CN2Cc2ccc(Cl)cc2)O1)NCc1ccccc1Cl,-28,-24
C[C@@H]1CN([C@H](C)CO)C(=O)c2cc(NC(=O)c3ccncc3)ccc2O[C@H]1CN(C)Cc1ccc(Cl)c(Cl)c1,-19,-16
C[C@@H]1CN([C@@H](C)CO)C(=O)c2cccc(NS(=O)(=O)c3ccccc3)c2O[C@H]1CN(C)S(=O)(=O)c1ccc(Cl)cc1,1,0
C[C@H](CO)N1C[C@H](C)[C@@H](CN(C)Cc2ccc(Cl)c(Cl)c2)OCCCC[C@H](C)Oc2ccc(NC(=O)Nc3ccc4c(c3)OCO4)cc2C1=O,-21,-8
O=C(Nc1cccc(Cl)c1)N[C@@H]1CC[C@@H](CCNC(=O)C2CC2)O[C@@H]1CO,-4,1
CO[C@H](CN(C)C(=O)Nc1ccc(C(F)(F)F)cc1)[C@H](C)CN(Cc1ccccc1Cl)[C@H](C)CO,-32,-15
